Screens from PubChem.
Kir21 inh – inhibitors of mouse Kir2.1 inward-rectifier potassium channel; HEK293-Kir2.1, FluxOR thallium flux fluorescence; stronger effect = lower value; actives 0.85% (n = 310,000); B-score at 10 µM; Inward rectifier potassium channel 2 (Mus musculus), P35561; AID 1672, 2009;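 active means fluorescence ratio B-score at or below minus 3 SD of library scores, with starting-brightness B-score within 2 SD, cut at about -4.2 in these data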;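 further: channel flux triggered by added potassium and thallium sulfate stimulus; B-score of peak minus minimum fluorescence over baseline after thallium stimulus; more negative B-score means stronger Kir2.1 block with less thallium influx; some compounds called inactive have numbers as strong as hits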
Target sequence (P35561 whole entry, looked up): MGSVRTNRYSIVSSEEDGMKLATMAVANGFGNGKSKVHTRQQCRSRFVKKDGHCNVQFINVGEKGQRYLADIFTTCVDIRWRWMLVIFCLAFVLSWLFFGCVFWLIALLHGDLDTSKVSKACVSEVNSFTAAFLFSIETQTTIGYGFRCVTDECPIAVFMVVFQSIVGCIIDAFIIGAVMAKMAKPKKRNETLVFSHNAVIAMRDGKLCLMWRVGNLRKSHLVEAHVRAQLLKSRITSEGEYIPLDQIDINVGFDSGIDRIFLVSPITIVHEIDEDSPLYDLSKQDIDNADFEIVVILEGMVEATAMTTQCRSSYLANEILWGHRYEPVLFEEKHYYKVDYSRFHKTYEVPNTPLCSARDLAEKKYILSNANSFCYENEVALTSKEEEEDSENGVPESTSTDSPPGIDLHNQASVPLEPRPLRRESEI
An asterisk follows results filed as active. This is a subset, and most or all hits are left out here.

| smiles | Kir21 inh |
| --- | --- |
| COc1ccc(/C=C/C(=O)Nc2cc(S(=O)(=O)N3CCCCC3)ccc2N2CCCCC2)cc1OC | 0.02 |
| CN(C)S(=O)(=O)c1ccc(NC(=O)CN2CCC(Cc3ccccc3)CC2)cc1 | 2 |
| CCOC(=O)c1c(C)c(C#N)c2c3ccccc3ccn12 | 0.93 |
| Cc1ccc2ccc(S(=O)(=O)n3nc(C)cc3C)cc2c1 | 0.19 |
| O=C(NCc1cccs1)c1cc(-c2ccccc2)nc2ccccc12 | -0.37 |
| O=S(=O)(Nc1ccc(C(F)(F)F)cc1)c1cnc[nH]1 | 1.2 |
| CNC(=O)[C@H](C)[C@@H]1C[C@@]1(C)[C@@H](NC(=O)OCc1ccccc1)c1ccccc1 | -0.05 |
| COc1ccc(NC(=O)c2ccc3c(c2)n(C)c(=O)n3C)cc1 | 0.38 |
| COc1ccc(NC(=O)CSc2nnnn2C2CCCC2)cc1 | -0.97 |
| O=C(Nc1cccc(S(=O)(=O)N2CCOCC2)c1)c1cn(-c2ccccc2)nc1-c1ccc(F)cc1 | 1.3 |
| Cc1ccc2c(=O)cc(C(=O)NC3CCS(=O)(=O)C3)oc2c1 (stereo not drawn) | -0.13 |
| O=C(NCc1ccccn1)Nc1ccccc1Cl | 0.39 |
| CC1=NN(c2ccc([N+](=O)[O-])cc2)C(c2ccccc2)C1 (stereo not drawn) | 0.03 |
| O=C(CSc1ncnc2c1cnn2Cc1ccccc1)Nc1ccc2c(c1)OCCO2 | 1.2 |
| C/C(=N\NC(=O)c1nnn(-c2nonc2N)c1-c1ccc2c(c1)OCO2)c1ccc(F)cc1 | 0.03 |
| CC1=C[C@H](C)[C@H](c2c(F)cccc2Cl)CC1=O | -0.53 |
| CC(C)N1C(=O)CCC1C(=O)O (stereo not drawn) | -0.63 |
| Cc1c(C(=O)N2CC3(CC(c4cccc(NC(=O)[C@H]5CCC(=O)N5)c4)=NO3)C[C@@H]2C(N)=O)cc([N+](=O)[O-])cc1[N+](=O)[O-] (stereo partly drawn) | 0.64 |
| O=C1c2ccccc2C(Nc2ccc(F)cc2F)N1CCN1CCOCC1 (stereo not drawn) | -0.03 |
| CC(=O)OC1CC[C@@]2(C)C(CCC3C2CC(=O)[C@@]2(C)C3CC3CC(C)=CC(=O)C32)C1 (stereo partly drawn) | -0.01 |

Given with values ahead of the structure: part of the list above
Kir21 inh,structure
0.64,Cc1c(C(=O)N2CC3(CC(c4cccc(NC(=O)[C@H]5CCC(=O)N5)c4)=NO3)C[C@@H]2C(N)=O)cc([N+](=O)[O-])cc1[N+](=O)[O-] (stereo partly drawn)
-0.03,O=C1c2ccccc2C(Nc2ccc(F)cc2F)N1CCN1CCOCC1 (stereo not drawn)
-0.01,CC(=O)OC1CC[C@@]2(C)C(CCC3C2CC(=O)[C@@]2(C)C3CC3CC(C)=CC(=O)C32)C1 (stereo partly drawn)

Next section.
| smiles | Kir21 inh |
| --- | --- |
| COC(=O)C1=C(C)N(Cc2ccc(OC)c(OC)c2)C(=O)C1 | 1.1 |
| Cc1cc(C)n2nc(C(=O)N/N=C/C=C/c3ccccc3)nc2n1 | -1.4 |
| COc1cc(CNCCCN2CCOCC2)c(Br)cc1OC(C)C | -2.6 |
| O=C(NC1CCCCC1)c1cc(Cl)ccc1[N+](=O)[O-] | 0.6 |
| COC(=O)C(C)n1nnc2sc(-c3ccccc3)cc2c1=O (stereo not drawn) | -0.17 |
| COCCNS(=O)(=O)c1cc(OC)ccc1OC | -1.1 |
| O=C(N[C@H](CO)Cc1ccccc1)c1ccco1 | -0.34 |
| CCCn1cc(CN2CCCC(CNC(=O)c3ccc(F)cc3)C2)c(C)n1 (stereo not drawn) | 0.22 |
| CC(=O)N(c1ccc(N(C(C)=O)S(=O)(=O)c2ccccc2)cc1)S(=O)(=O)c1ccccc1 | 0.03 |
| O=C(Nc1ccccc1C(=O)O)c1ccc(N2C(=O)C3CC=CCC3C2=O)cc1 (stereo not drawn) | 0.67 |
| O=S(=O)(Nc1cccc2cccnc12)c1ccc(S(=O)(=O)N2CCCC2)cc1 | 0.19 |
| Cc1nc2ccccc2n1C1CC(=O)N(N(C)C)C1=O (stereo not drawn) | -0.26 |
| COc1ccc(C2NC(=O)c3ccccc3O2)c(OC)c1OC (stereo not drawn) | -0.28 |
| CCOc1cc(C2c3c(oc4ccccc4c3=O)C(=O)N2c2nccs2)ccc1O (stereo not drawn) | -0.45 |
| Cc1nn(C)c(C)c1S(=O)(=O)N1CCc2ccccc21 | -2.4 |
| O=C(CC1C(=O)NCCN1Cc1ccc(F)cc1)NCCOc1cccnc1 (stereo not drawn) | -0.58 |
| CCOC(=O)c1[nH]c2cc3c(cc2c1NC(=O)CN1CC(C)CC(C)C1)OCO3 (stereo not drawn) | -0.62 |
| Cc1ccc(N=C2NC(=O)c3cc([N+](=O)[O-])ccc32)cc1 | 0.02 |
| COc1ccc(NS(=O)(=O)c2ccc(NC(=O)c3ccc(N(C)S(C)(=O)=O)cc3)cc2)cc1 | -0.53 |
| O=C(CCCN1C(=O)/C(=C/c2ccccc2)SC1=S)Nc1cccc(O)c1 | 0.28 |
| CCN1C(=O)C2(C(C#N)=C(N)Oc3n[nH]c(C(C)C)c32)c2ccccc21 (stereo not drawn) | 0.25 |
| CCOc1ccc(NC(=O)Cn2nnc(-c3ccccc3NC(=O)CC)n2)cc1 | -2.6 |
| CCOc1cc(C)c(S(=O)(=O)NC2CC(C)(C)NC(C)(C)C2)cc1C | -0.5 |
| COc1ccc(NC(=O)CN2C(=O)COc3ccc(C)cc32)c(OC)c1 | -0.84 |
| COc1ccccc1N1CCN(CCN2C(=O)C3CCCN3C2=O)CC1 (stereo not drawn) | 0.05 |
| COc1ccccc1CCC(=O)N(CCC1=CCCCC1)c1c(N)n(Cc2ccccc2)c(=O)[nH]c1=O | 1 |
| Cc1cc(NS(=O)(=O)c2ccc(NC(=O)c3c(F)c(F)c(F)c(F)c3F)cc2)nc(C)n1 | 0.4 |
| O=C(c1ccc(CN2CCc3ccccc3C2)cc1)N1CCc2ccccc2C1 | 1.4 |
| Cc1ccc(NC(=O)CCCCCN2C(=O)[C@@H]3Cc4ccccc4CN3C2=O)c(C)c1 | 0.45 |
| Cc1cccc(NC(=O)C2Cc3ccccc3CN2C(=O)OCc2ccccc2)c1C (stereo not drawn) | 0.17 |
| Cc1cccc(C)c1N1CCN(C(=O)N2CCCCC2)CC1 | 0.55 |
| COc1ccc(C(=S)Nc2ccc(C)cc2)cc1 | -0.03 |
| CC(C)CNC(=O)c1coc(=O)c(Br)c1 | -1 |
| COc1ccc(-c2nc(CS(=O)(=O)CC(=O)NC3CCCCCC3)c(C)o2)cc1 | 0.13 |
| CCCc1cc(=O)oc2c(C)c(OCC(=O)NCCN3CCOCC3)ccc12 | 1.8 |
| O=C(O)c1ccccc1C(=O)Nc1ccc(Oc2cccc(C(F)(F)F)c2)nc1 | 0.54 |
| N#CCCN(C(=O)COC(=O)CCc1ccccc1)c1ccccc1 | 0.43 |
| CO/N=C(\C)C(Cc1ccc(Cl)nc1)Cc1ccc(Cl)nc1 | -1.5 |
| Cc1cc(C)c(NC(=O)CSc2nc(COc3ccccc3)nc3ccccc23)c(C)c1 | 0.76 |
| O=C(NCc1cccnc1)C12CC3CC(CC(Cl)(C3)C1)C2 | 0.67 |
| Cc1nn(S(=O)(=O)N(C)C)c(C)c1CN1C(=O)c2ccccc2C1=O | 0.51 |
| O=c1[nH]ncc(NCCc2ccccc2)c1Cl | -1.8 |
| Cc1cc(OCCn2cncn2)ccc1[N+](=O)[O-] | 1.1 |
| O=C(O)c1cccc2cc(-c3ccccc3)oc(=O)c12 | 0.45 |
| CCOC(=O)CNC(=O)c1ccc(C)cc1 | 0.04 |
| O=C(CSc1ccc(C(F)(F)F)cn1)Nc1ccccc1 | 0.81 |
| COc1ccc(-c2cc(NCCc3ccncc3)n3ncnc3n2)cc1 | 1.2 |
| CCCC12CN(C(=O)c3ccc(OC)cc3)CC(C)(CN(C(=O)c3ccc(OC)cc3)C1)C2=O | 0.41 |
| COc1cc2c(cc1OC)C(C(=O)NCc1ccco1)C(c1cccs1)N(C)C2=O (stereo not drawn) | 0.15 |
| CCn1cc(C(=O)Nc2cccc(C)c2)c(=O)c2ccc(C)nc21 | 0.08 |

Continuation:
SMILES,Kir21 inh
COC(=O)c1ccccc1NC(=O)/C=N/O,-1.5
CC(C)NC(=O)COc1ccc(S(=O)(=O)N2CCCC2)cc1,0
Cc1ccc(S(=O)(=O)[N-]c2nc3ccccc3nc2-[n+]2cc(C)cc(C)c2)cc1,-1.7
Cc1ccccc1Nc1nc(CSc2nnc(-c3ccoc3C)n2C)cs1,0.81
Cc1cccc(C)c1NC(=O)CNC(=O)Cc1c[nH]c2ccccc12,1.7
CCc1nnc(NC(=O)CSc2nnc3c(n2)[nH]c2ccccc23)s1,0.51
Cc1cccc(OCc2nnc(SCC(=O)N3CCCCC3)o2)c1,-0.66
CC1(C)CC(=O)C2=C(C1)N(Cc1ccco1)C(=O)NC2(C(F)(F)F)C(F)(F)F,-1.9
CCn1c(C)nnc1SCC(=O)Nc1nccs1,1.6
Cc1cccc(Nc2ncc3c(n2)CC(c2ccco2)CC3=O)c1 (stereo not drawn),0.84
O=C(CCCNS(=O)(=O)c1cccc2nsnc12)NCCN1CCN(c2ccccc2F)CC1,-0.61
Cc1ccc(C2=CSC3=NCCN23)cc1,3.1
CCOc1c(C)cnc2c1c(=O)n(Cc1ccccc1F)c(=O)n2C,-1.3
CC1=C(C(=O)N2CCN(C(=O)c3ccco3)CC2)C2(CCC(C)CC2)OC1=O (stereo not drawn),-0.06
COc1cc(/C=C/CO)ccc1O[C@@H]1O[C@H](CO)[C@@H](O)[C@H](O)[C@H]1O,2.2
CN(C)c1ccc(C(=O)C(O)c2ccc(C(C)(C)C)cc2)cc1 (stereo not drawn),-0.6
C=CCOc1ccc(/C=C/C(=O)OCC(=O)NCC(=O)Nc2c(C)cc(C)cc2C)cc1,-0.58
CN1CCN(S(=O)(=O)c2ccc(-c3ccc(Cl)cc3)cc2)CC1,0.73
CCc1ccc2oc(=O)cc(CN3CCN(CCO)CC3)c2c1,-0.1
COc1ccc(-c2nc(-c3cccc(C(F)(F)F)c3)no2)cc1OC,0.07
CC12CCC(C(=O)N(c3ccc(Cl)cc3)C1=O)C2(C)C (stereo not drawn),0.02
COc1ccc(CCN(C)C2CCCN(C(=O)c3ccnn3C)C2)cc1OC (stereo not drawn),-1.4
O=C(COc1ccc(NS(=O)(=O)c2ccc(F)cc2)cc1)N1CCOCC1,-1.4
COc1ccc(-c2cnc3ccccc3n2)cc1NC(=O)CNC(=O)c1ccccc1,-0.13

Some of these compounds in order of the Kir21 inh value, high to low:
SMILES,Kir21 inh
COc1ccc(-c2nc(-c3cccc(C(F)(F)F)c3)no2)cc1OC,0.07
CC12CCC(C(=O)N(c3ccc(Cl)cc3)C1=O)C2(C)C (stereo not drawn),0.02
CCc1ccc2oc(=O)cc(CN3CCN(CCO)CC3)c2c1,-0.1
C=CCOc1ccc(/C=C/C(=O)OCC(=O)NCC(=O)Nc2c(C)cc(C)cc2C)cc1,-0.58
COc1ccc(CCN(C)C2CCCN(C(=O)c3ccnn3C)C2)cc1OC (stereo not drawn),-1.4

(cont.)
SMILES,Kir21 inh
CCOc1c2c(nc3ccc(Cl)cc13)CCC2,0.01
O=C(Nc1ccc(Cl)cn1)c1cc(S(=O)(=O)N2CCCCC2)ccc1Cl,0.08
CCCCn1c(C(C)NC(=O)CC)nc2ccccc21 (stereo not drawn),-0.37
Cc1cc(C)cc(N(CCC(=O)Nc2nnc(C)s2)S(=O)(=O)c2ccc(Cl)cc2)c1,0.36
O=C(CSc1ccc(-c2ccco2)nn1)NC1CCCC1,0.11
Cc1nc2cc(C(=O)NCc3ccc4c(c3)OCO4)ccc2n1-c1ccc(Br)cc1,-0.02
COc1cccc(/C=C/C(=O)OCC(=O)NCc2ccco2)c1,0.1
CCOCCOC(=O)c1[nH]c2c(c1C)C(=O)CC(c1cc(OC)c(OC)c(OC)c1)C2 (stereo not drawn),-1.2

In another format: results already given.
O=C(O)c1ccccc1C(=O)Nc1ccc(Oc2cccc(C(F)(F)F)c2)nc1
  Kir21 inh: 0.54
N#CCCN(C(=O)COC(=O)CCc1ccccc1)c1ccccc1
  Kir21 inh: 0.43

(next part)
SMILES,Kir21 inh
CCCNC(=O)N1CCN(S(=O)(=O)c2ccc(C)cc2)CC1,1.7
CC(=O)c1cccc(-n2nnnc2SCC(=O)Nc2ccccc2N2CCCCC2)c1,-0.47
CC(C(=O)N1CCc2ccccc2C1)N(c1ccccc1)S(C)(=O)=O (stereo not drawn),0.76
O=C(O)c1sccc1S(=O)(=O)c1ccccc1,0.11
COc1ccc(OC)c(S(=O)(=O)Nc2ccc(CC(=O)O)cc2)c1,0.52
COc1ccc(C2c3ccc(O)cc3Oc3ncn(Cc4ccco4)c(=N)c32)cc1OC (stereo not drawn),-4.3
CCC(C)c1ccc(NC(=S)Nc2ccc(OC)c(OC)c2)cc1 (stereo not drawn),-0.11
COC(=O)c1ccc(-n2c(CCC(=O)O)ccc2-c2ccc(C)cc2)cc1,-0.83
CC(SC(=S)N1CCOCC1)C(=O)O (stereo not drawn),-0.36
N=c1ccn2c(n1)OC1C(O)C(CO)OC12 (stereo not drawn),0.41
Fc1cccc(Nc2nc(Cl)nc(Cl)n2)c1,-0.01
Clc1ccccc1-c1ncc(-c2ccccc2)o1,0.04
COc1ccc(-c2coc3cc(OC(=O)N4CCOCC4)ccc3c2=O)cc1,-1.3
CCC(=O)Oc1ccc2c(C)c(Cl)c(=O)oc2c1,-0.37
COc1ccc(CCNC(=O)/C=C/c2ccc(C)cc2)cc1OC,0.05
COC(=O)c1ccc(N2CCOCC2)c(NC(=O)Nc2cccc(OC)c2)c1,2.8
CC(C(=O)NCc1ccc2c(c1)OCO2)N1c2cccc3cccc(c23)S1(=O)=O (stereo not drawn),0
CC1CCc2c(C(=O)NCC3CCCO3)csc2C1 (stereo not drawn),1.3
CCC(c1nnnn1CC1CCCO1)N(CCCO)Cc1cc2cccc(C)c2[nH]c1=O (stereo not drawn),-0.27
CC(NC(=O)c1ccncc1)C(c1cccs1)N1CCOCC1 (stereo not drawn),2.4
